miR-21 reporter: raises the signal of a miR-21 reporter; 340,000 tested, under 10 active; HeLa miR-21 FLuc reporter, luciferase, 48 h; Potency, µM (highest dose often 38.3 µM), for inactives: top-dose reporter change, positive = more light; AID 2288; active = well fitted rising curve with a large enough effect; inconclusive = small, poorly fitted or top-dose-only effect; inactive = no such curve, though single readings can be large or run the other way;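 also: % of control where 0% means no effect; miR-21 action dims this reporter so a rising signal means less miR-21 action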
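HeLa miR-21-FLuc reporter line, endogenous miR-21; 2000 cells/well in DMEM/10% FBS; compound titration up to ~40uM final, 48 h, 37 degree Celsius; luciferase detection reagent, 15 min lysis, CCD luminescence.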
GLA inh pH 4.5: inhibitors of human alpha-galactosidase A at pH 4.5; P06280; purified enzyme, 4-MU-alpha-Gal fluorescence, pH 4.5; activity change, negative = inhibition, % at 105 µM; 230,000 tested, under 10 active; inconclusive = small, poorly fitted or top-dose-only inhibition, or a rising curve; inactive = flat fitted curve, though single readings scatter; no compound was filed as active;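 also: 0% = full activity with enzyme and -100% = basal without enzyme; dose as in the result columns while the protocol names 77 µM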
Rango dissoc inh: inhibition of RanGTP-driven Rango-importin beta dissociation; O95149+P62826; Biochemical FRET Rango-importin beta, RanGTP-induced dissociation; Potency, µM (series often up to 46.1 µM), for the others: at the top dose activity change, negative = inhibition; 340,000 tested, 0.071% active; active means falling FRET ratio curve, often poorly fitted, with flat reads before Ran was added; inconclusive means other falling curves, or compound fluorescence or quenching; inactive means flat or rising ratio curve;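 also: potency is read from the fitted curve at half-maximal effect; % of control where 0% means no effect; nearly all actives have a fitted effect of over 45% in size; -100% = wells without RanGTP and RCC1; the record marks most hits as doubtful in a second field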
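Quantitative HTS using a FRET biosensor: 0.1 uM Rango, 0.25 uM importin beta, 0.6 uM Ran, 2 mM GTP, 0.2 uM RCC1 final, PBS with DTT, Tween-20 and BSA. Post-read taken 45 min after Ran addition.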
Rango-impB inh: prevents formation of the Rango-importin beta complex | Potency, µM (series often up to 92.2 µM), without a hit: at the top dose inhibition of complex formation | Q14974 | 340,000 tested, 0.031% active | Rango CFP/YFP FRET sensor + importin beta, 45 min; active = rising FRET ratio curve, often small or poorly fitted; inconclusive = mostly compound fluorescence or quenching in the first reads; inactive = flat curves in all reads;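 also: potency is read from the fitted curve at half-maximal effect; 0% = DMSO wells and 100% = buffer wells lacking importin beta; nearly all actives have a fitted effect of over 15% in size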
Target sequence (Q14974 whole entry, looked up): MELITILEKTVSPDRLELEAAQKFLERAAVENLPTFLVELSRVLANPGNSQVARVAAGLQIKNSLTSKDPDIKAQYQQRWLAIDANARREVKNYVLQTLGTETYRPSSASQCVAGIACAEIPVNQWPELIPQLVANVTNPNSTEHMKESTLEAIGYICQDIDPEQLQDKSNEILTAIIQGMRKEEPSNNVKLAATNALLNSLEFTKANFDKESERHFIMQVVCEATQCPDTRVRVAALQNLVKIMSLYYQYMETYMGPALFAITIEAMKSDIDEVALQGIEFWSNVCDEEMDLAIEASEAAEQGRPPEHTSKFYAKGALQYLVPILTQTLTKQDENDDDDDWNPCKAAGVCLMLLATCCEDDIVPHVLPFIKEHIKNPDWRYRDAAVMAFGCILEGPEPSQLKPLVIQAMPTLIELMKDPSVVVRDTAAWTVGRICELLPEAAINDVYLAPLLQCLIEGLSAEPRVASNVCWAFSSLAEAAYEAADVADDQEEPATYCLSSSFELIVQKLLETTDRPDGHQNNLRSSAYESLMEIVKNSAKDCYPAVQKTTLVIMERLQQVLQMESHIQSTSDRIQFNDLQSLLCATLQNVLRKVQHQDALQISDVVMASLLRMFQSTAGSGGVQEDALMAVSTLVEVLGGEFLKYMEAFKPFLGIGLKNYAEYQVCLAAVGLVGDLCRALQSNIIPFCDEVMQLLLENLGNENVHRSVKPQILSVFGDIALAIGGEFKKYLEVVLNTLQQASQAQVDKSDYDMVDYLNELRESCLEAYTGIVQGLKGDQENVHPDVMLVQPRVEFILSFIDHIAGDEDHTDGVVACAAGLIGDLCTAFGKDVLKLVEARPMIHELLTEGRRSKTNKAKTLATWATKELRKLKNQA
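Inhibition scored from the CFP 486 nm/YFP 530 nm FRET ratio 45 min after adding 0.125 microM importin beta to 50 nM Rango biosensor preincubated 5 min with compound (room temperature, PBS with DTT, Tween-20, BSA). No-importin wells as positive control.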
* = called active by the depositor; ? = inconclusive; / = no result given; & = joins results of further samples. The list is partial; count on the stated rates, not on these rows.

SMILES | miR-21 reporter | GLA inh pH 4.5 | Rango dissoc inh | Rango-impB inh
C#CCOCCOCCOCCNc1nc(N2CCN(C(=O)CCCCCCCCCCNC(=O)[C@H](CCCCN)n3cc(C)nn3)CC2)nc(N2CCN(C(=O)CCCCCCCCCCNC(=O)[C@@H]([C@H](C)O)n3cc(C)nn3)CC2)n1 | / | / | -7% | 1.0%
CCOC(=O)c1ccccc1NC(=O)CSc1nnc(C(C)C)n1CC | 2% | -2 | 7% | 0.3%
COC(=O)[C@@]1(C)[C@H]2C(=O)N(Cc3ccccc3)C(=O)[C@H]2[C@H]2CN=C(SCC(=O)c3ccccc3)N21 | / | / | -6% | -0.4%
CN(CC(=O)NC(=O)NC1CCCCC1)CC(=O)Nc1ccc(OC(F)(F)F)cc1 | / | / | -8% | -0.4%
O=S(=O)(c1ccc2nc(SCc3ccc(Cl)cc3)[nH]c2c1)N1CCOCC1 | 6% | -5 | -3% | -2.0%
COc1ccccc1C(=O)O/N=C(/C)c1ccc(N2C(=O)C3CCCCC3C2=O)cc1 (stereo not given) | -13% | -11 | -7% | -1.2%
O=S1(=O)N=CN(Cc2cccc(F)c2)c2ccccc21 | -7% | 2 | 11% | -1.5%
Cc1ccc(C2(C)CC(C)(C)N(C(=O)CSc3nnc(C)s3)c3ccccc32)cc1 (stereo not given) | 17% | -14 | -25% | 7.5%
Nc1nc(SCC(=O)O)[nH]c(=O)c1NC(=O)c1ccccc1F | -2% | -27 | 21% | 0.0%
O=C(/C=C/c1ccco1)N(Cc1cccc(F)c1)C1CCS(=O)(=O)C1 (stereo not given) | -4% | / | -9% | 2.9%
O=C(Cn1c(=O)sc2ccccc21)Nc1ccc(S(=O)(=O)N2CCCC2)cc1 | 0% | -6 | 1% | -1.8%
COCCSc1nnc(NC(=O)CCS(=O)(=O)c2ccccc2)s1 | 6% | / | 0% | -1.2%
O=C(Nc1ccc2[nH]ccc2c1)c1ccccc1 | 9% | -6 | -24% | -2.2%
COc1cccc(CC(=O)Nc2nc(C)cs2)c1 | -44% | -3 | -4% | -2.9%
COc1cccc(-c2nc(-c3ccccc3)nc(N3CCN(C)CC3)c2C#N)c1 | 13% | -5 | -1% | 3.9%
O=C(NCCN1CCN(C(=O)c2cccc(Br)c2)CC1)C(=O)NCc1ccccc1 | 3% | / | -5% | -0.9%
Cc1ccccc1NC(=S)N=Nc1c(O)n(C)c2ccc(S(=O)(=O)N3CCOCC3)cc12 | 22% | 9 | -2% | 4.6%
c1ccc(CSc2ncnc3c2ncn3C2CCCCO2)cc1 (stereo not given) | / | / | 2% | 0.5%
CC(C)NC(=O)c1[nH]nc2c1CCc1ccccc1-2 | -45% | / | 1% | -1.5%
COc1ccc2cc3cc(C(=O)N4CCN(c5ccccc5)CC4)oc3nc2c1 | 0% | -5 | 19% | 3.6%
CCN1C/C(=C/c2ccc(N3CCOCC3)cc2)C(=O)/C(=C/c2ccc(N3CCOCC3)cc2)C1 | ? | -9 | ? | ?
CC(=O)C1C(c2ccc(Cl)cc2)c2c(noc2C)CC1(C)O (stereo not given) | 2% | 0 | -9% | 1.5%
CCOC(=O)C1(C(=O)OCC)NC(=O)CC1C (stereo not given) | / | / | ? | /
O=C(Nc1ccc2c(c1)OCO2)c1ccc2c(c1)S(=O)(=O)c1ccccc1C2=O | / | / | 3% | -3.5%
CC(C)(C)NC(=O)C(OC(=O)c1cccs1)c1ccccc1 (stereo not given) | 3% | 1 | 0% | -0.6%

Record cards, from the list above:
CN(CC(=O)NC(=O)NC1CCCCC1)CC(=O)Nc1ccc(OC(F)(F)F)cc1 is listed with miR-21 reporter: /; GLA inh pH 4.5: /; Rango dissoc inh: -8%; Rango-impB inh: -0.4%
COc1cccc(-c2nc(-c3ccccc3)nc(N3CCN(C)CC3)c2C#N)c1 is listed with miR-21 reporter: 13%; GLA inh pH 4.5: -5; Rango dissoc inh: -1%; Rango-impB inh: 3.9%
COc1ccc2cc3cc(C(=O)N4CCN(c5ccccc5)CC4)oc3nc2c1 is listed with miR-21 reporter: 0%; GLA inh pH 4.5: -5; Rango dissoc inh: 19%; Rango-impB inh: 3.6%

An excerpt from above in order of the miR-21 reporter value, high to low.
SMILES | miR-21 reporter | GLA inh pH 4.5 | Rango dissoc inh | Rango-impB inh
Cc1ccc(C2(C)CC(C)(C)N(C(=O)CSc3nnc(C)s3)c3ccccc32)cc1 (stereo not given) | 17% | -14 | -25% | 7.5%
COc1cccc(-c2nc(-c3ccccc3)nc(N3CCN(C)CC3)c2C#N)c1 | 13% | -5 | -1% | 3.9%
O=C(Nc1ccc2[nH]ccc2c1)c1ccccc1 | 9% | -6 | -24% | -2.2%

Next section:
SMILES | miR-21 reporter | GLA inh pH 4.5 | Rango dissoc inh | Rango-impB inh
CCOC(=O)c1sc2ncnc(NCC(c3cccs3)N(C)C)c2c1C (stereo not given) | -21% | 2 | -17% | -5.9%
Cc1csc(SCC(=O)NC(=O)NCCC(C)C)n1 | -11% | 9 | 8% | -0.1%
CSc1ncc(Cl)c(C(=O)NCc2ccc3c(c2)OCO3)n1 | -6% | -6 | 7% | -3.5%
CN(C)S(=O)(=O)N(CC(=O)Nc1ccc2ccccc2c1)c1ccccc1 | 0% | -1 | -13% | 1.7%
CN(C)CCCN(C(=O)c1ccco1)c1nc2cc3c(cc2s1)OCO3 | -5% | / | -10% | 0.2%
COc1ccc(OCC(=O)Nc2cc(-c3nn(C)c(=O)c4ccccc34)ccc2OC)cc1 | 1% | -3 | -7% | -2.4%
CC1(C)C(=O)Nc2ccccc2N1C(=O)COC(=O)CCSc1ccccc1 | -3% | -27 | 18% | 0.9%
C/C=C/C(=O)Nc1cccc(C2=NOC3(C2)C[C@H](C(N)=O)N(C(=O)c2ccccc2C(=O)c2ccccc2)C3)c1 (stereo not given in full) | 5% | -8 | / | /
CCOC(=O)N1CCN(C(=O)C(C)NC(=O)c2ccco2)CC1 (stereo not given) | 3% | / | 26% | 1.6%
O=C(CSC1=NCCN1)NC12CC3CC(CC(C3)C1)C2 | 14% | -2 | 5% | 1.0%
Cn1ccnc1C1CCCCN1C(=O)c1cc(COc2ccc(F)cc2F)on1 (stereo not given) | -2% | -1 | -16% | -1.9%
Nc1nc(SCC(=O)Nc2ccc([N+](=O)[O-])cc2)[nH]c(=O)c1NC(=O)c1ccc(Br)o1 | 1% | / | -9% | 2.3%
COc1ccc(S(=O)(=O)NCc2cc(=O)n(C)c(=O)n2C)cc1F | 1% | / | 17% | -4.9%
COc1cccc(NC(=S)N(CCCN2CCC(C)CC2)Cc2cccs2)c1 | 6% | -3 | 6% | -0.1%
CN(CC(=O)Nc1c(Cl)cccc1Cl)C(=O)c1cc(S(=O)(=O)N(C)C)ccc1N1CCCC1 | / | / | 15% | -1.6%
O=C(CS(=O)(=O)c1ccc(Cl)cc1)Nc1nnc(-c2cccs2)o1 | -1% | / | 9% | 1.0%
COC(=O)c1ccc(S(=O)(=O)N(Cc2ccccc2)Cc2ccccc2)n1C | -4% | -8 | ? | 7.8%
COc1cc(OC)c(OC)cc1/C=N/NC(=O)CSc1ccccc1F | 1% | / | 19% | 0.1%
O=C(NCC1CCCO1)c1nc2c(nnn2Cc2ccc(F)cc2)c(=O)[nH]1 (stereo not given) | -20% | -4 | 4% | -1.3%
O=c1cccc(-c2ccc(Br)cc2)o1 | -12% | 4 | -5% | 4.6%
C=CCNC(=S)NC1CC(C)(C)NC(C)(C)C1 | -4% | 1 | 3% | ?
Cc1cccc(-n2c(O)c(C=Nc3ccccc3)c3ccccc3c2=O)n1 | -2% | -12 | -22% | ?
Cc1ccc(CC2C(=O)N(c3cc(Cl)ccn3)C(=O)C2C)cc1 (stereo not given) | -2% | -3 | -6% | 0.0%
OCCC1CN(CCCc2ccccc2)CCN1CCc1ccccc1 (stereo not given) | -6% | / | -11% | -2.2%
CCC(CC)C(=O)Nc1c2c(nn1-c1ccc(C)cc1)CS(=O)(=O)C2 | -2% | / | -10% | 1.8%

(more compounds)
SMILES | miR-21 reporter | GLA inh pH 4.5 | Rango dissoc inh | Rango-impB inh
O=C(/C=C/c1ccco1)N(c1ccccn1)c1ccccn1 | 1% | 10 | -14% | ?
COc1ccc(OCCCC(=O)Nc2cccnc2)cc1 | -1% | 4 | 2% | 1.9%
CCc1ccc(-n2c(=O)c3c(C)c(C)sc3n(CC(=O)NCC3CCCO3)c2=O)cc1 (stereo not given) | -1% | 9 | 10% | 0.6%
CC1(C)CC(=O)C(C=Nc2ccc3[nH]ncc3c2)=C(O)C1 | 16% | -10 | 0% | -3.0%
O=C(OC1CCCCC1=O)c1cc(Cl)ccc1[N+](=O)[O-] (stereo not given) | -5% | 5 | 21% | -0.6%
Cc1ccc2c(c1)N(CC(=O)NCCCN1CCOCC1)C(=O)c1cccnc1O2 | 3% | / | -7% | 5.7%
CC(=O)N1c2ccc3ccccc3c2C2C=CCC2C1c1ccc(Br)cc1 (stereo not given) | -1% | -5 | / | /
Cc1ccc(C(=O)N/C(=C\c2cccs2)C(=O)N2CCOCC2)cc1C | -1% | / | 3% | 2.7%
O=C(CCNS(=O)(=O)c1ccccc1)NNC(=O)c1cccc(Cl)c1 | / | / | 3% | 0.1%
Cc1nc(N2CCN(C(=O)c3ccco3)CC2)c(C#N)c2c1CCCC2 | -20% | / | -14% | ?
Cc1c(NC(=O)c2c(N)n(-c3ccccc3)c3nc4ccccc4nc23)c(=O)n(-c2ccccc2)n1C | -8% | 1 | / | /
CCn1c(CNC(=O)c2ccco2)nnc1SCC(=O)Nc1cc(F)ccc1C | 1% | / | 26% | -0.4%
COc1cccc(/C(C)=N/Nc2ccc(S(=O)(=O)N3CCCCC3)cn2)c1 | / | / | 8% | -0.9%
O=C(Cc1ccccc1)N/N=C/c1ccccc1OCc1ccc(Cl)cc1 | -37% | -7 | -9% | -1.5%
Cc1cccc([C@@H]2[C@@H]3C(=O)N(Cc4ccccc4)C(=O)[C@@H]3[C@]3(Cc4ccc(Cl)cc4)C(=O)N(c4ccc(Br)cc4)C(=O)N23)c1 | 6% | / | -11% | -1.8%
COc1cccc(N2CCN(C(=O)C3CCN(S(=O)(=O)c4ccc5c(c4)oc(=O)n5C)CC3)CC2)c1 | 0%&6% | / | 5% | 0.3%
COC(=O)CCCC1=CC2=CC(=O)C(C)(OC(=O)c3cccs3)C(=O)C2=CN1CC1CC1 (stereo not given) | 1% | -2&-15 | -8% | ?
CC(C)C[C@H](NC(=O)Nc1cccc(C(F)(F)F)c1)C(=O)O | -7% | 2 | 2% | -2.9%
Cc1ccc(S(=O)(=O)N(C)c2ccc3ccccc3c2)cc1 | 1% | 2 | 21% | -2.5%
COc1ccc2c(c1)c(C(=O)CN1CCN(C(=O)c3ccco3)CC1)c(C)n2C | -7% | 0 | -14% | -2.8%
CCN(CC)CCCn1c(=S)[nH]c2cc(OC)c(OC)cc2c1=O | 0% | 0 | -2% | -0.1%
O=C(N/N=C/c1ccccc1O)C1CCCC1 | 10% | / | -3% | -0.4%
Cn1c(=O)c2c(SCC(=O)NCC3CCCO3)nc(-c3ccccc3Cl)nc2n(C)c1=O (stereo not given) | 0% | / | 8% | 0.0%
Cc1cccc(C2NC(c3cccc(C)c3)C(C)C(=O)C2C)c1 (stereo not given) | -5% | / | -10% | 1.3%
CC(C)CC1Nc2ncnc(N3CCOCC3)c2N(Cc2ccc(Br)cc2)C1=O (stereo not given) | / | / | -23% | 4.5%

Going on with the list:
SMILES | miR-21 reporter | GLA inh pH 4.5 | Rango dissoc inh | Rango-impB inh
CC(C)C(=O)N1CCc2cc(-c3csc(N)n3)ccc21 | -14% | -2 | -23% | ?
CCCN(C(=O)CSc1cc(-c2ccccc2)c2ccc(OC)cc2n1)C1CCS(=O)(=O)C1 (stereo not given) | -6% | -13 | -5% | -0.9%
CSC1CCCCC1(O)CSc1nc2ccccc2o1 (stereo not given) | -13% | -4 | 1% | 2.6%
Cc1ccc(C(=O)NCc2ccc3c(c2)OCO3)cc1C | -50% | / | 34% | 4.5%
C/C(=N\NC(=S)NCc1ccccc1)c1cccs1 | -42% | -17 | -13% | -0.4%
O=C(Nc1ccc([N+](=O)[O-])cn1)c1cccnc1 | 5% | / | -1% | -4.1%
O=S(=O)(c1ccc(NCCc2c[nH]c3ccccc23)nc1)N1CCOCC1 | -9% | -3 | -9% | -0.1%
NC(=O)C1C2C=CC(C2)C1c1ccccc1 (stereo not given) | / | / | -7% | 0.0%

High-throughput results deposited in PubChem by National Center for Advancing Translational Sciences (NCATS).
